Marburg entry inh: qHTS for inhibitors of binding or entry into cells for Marburg Virus | Marburg virus pseudotyped entry inhibition, cell reporter; control for the full effect not named in the record; about a third of the inactives were read at about 46 µM | Potency, µM (top dose mostly 37.8 µM), inactives show top-dose activity change, negative = inhibition, most hits filed as inhibitors | actives 1.8% (n = 300,000); active = well fitted inhibition curve with a large enough effect; inconclusive = small, poorly fitted or top-dose-only effect, or effect the other way; inactive = flat fitted curve, though single readings scatter; tested in HEK293 cells; about a fifth of its hits are not listed in these tables; note: % is set by controls: 0 for no effect and ±100 for the full control effect; luciferase read-out
SARS PLP yeast: qHTS of Yeast-based Assay for SARS-CoV PLP; Potency, µM (highest dose often 32.9 µM), for the others: top-dose activity, positive = growth rescue; actives 0.19% (n = 330,000); S. cerevisiae expressing SARS-CoV PLpro, growth rescue; control for the full effect not named in the record; note: 0% is about no effect; nearly all actives have a fitted effect of over 55% in size; growth read by luminescence after 48 h
RE007 growth inh: qHTS Assay for Inhibitors of the HIV-1 protein Vpr | S. pombe RE007 Vpr strain, BacTiter-Glo ATP luminescence, 24 h; control for the full effect not named in the record | Potency, µM (top dose mostly 92.2 µM), for the others: at the top dose activity change, negative = less growth | actives 0.21% (n = 360,000); active = well fitted falling curve with a large enough effect; inconclusive = small, poorly fitted or top-dose-only effect; inactive = no such curve, though single readings can be large or run the other way;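 note: % is set by controls: 0 for no effect and ±100 for the full control effect; nearly all actives have a fitted effect of over 50% in size; the assay follows cell death caused by Vpr and the record does not say whether a fall means rescue or toxicity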
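Fission yeast RE007 carrying one integrated HIV-1 vpr copy, seeded at OD 0.01 in PMG+AL medium with 23 nL pinned compound. Grown 24 h at 30 degrees; viability read by BacTiter-Glo luminescence after 5 min.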
Cruzain Triton: qHTS Assay for Promiscuous and Specific Inhibitors of Cruzain (with detergent) | actives 0.43% (n = 200,000) | Cruzipain (Trypanosoma cruzi), P25779 | purified cruzain, Z-FR-AMC fluorescence, 0.01% Triton | AID 1478, 2009 | Potency, µM, without a hit: max response, negative = inhibition, most hits filed as inhibitors; active = well fitted curve in the direction sought with a large enough effect; inconclusive = small, poorly fitted or top-dose-only effect, or another doubt; inactive = no such curve, though single readings can be large; an effect the other way counts as inactive or inconclusive;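 note: plate controls were neutral wells for no effect and buffer without enzyme for full effect; nearly all actives have a fitted effect of over 40% in size; top concentration of the series not given in the record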
Target sequence (P25779 123-467 limits assumed): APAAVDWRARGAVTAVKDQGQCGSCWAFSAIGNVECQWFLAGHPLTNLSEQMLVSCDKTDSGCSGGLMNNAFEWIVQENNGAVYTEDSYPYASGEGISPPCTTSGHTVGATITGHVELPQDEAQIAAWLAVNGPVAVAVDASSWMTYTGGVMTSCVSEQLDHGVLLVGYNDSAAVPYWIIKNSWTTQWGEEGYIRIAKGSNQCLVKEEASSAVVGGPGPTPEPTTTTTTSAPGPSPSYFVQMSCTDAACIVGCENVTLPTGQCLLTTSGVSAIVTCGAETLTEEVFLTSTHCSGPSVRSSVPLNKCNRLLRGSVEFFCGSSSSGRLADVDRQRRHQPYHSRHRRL
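Compounds were screened in titration against cruzain (1.5 nM) with 0.01% Triton X-100 to counter colloidal aggregation. Activity was the AMC fluorescence increase over 60 s after adding 2 uM Z-FR-AMC at pH 5.5.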
Cruzain noTriton: qHTS Assay for Promiscuous and Specific Inhibitors of Cruzain (without detergent) | AID 1476, 2009 | actives 2.3% (n = 200,000) | Potency, µM, for inactives: max response, negative = inhibition, most hits filed as inhibitors | purified cruzain, Z-FR-AMC fluorescence, no detergent | Cruzipain (Trypanosoma cruzi), P25779; active = well fitted curve in the direction sought with a large enough effect; inconclusive = small, poorly fitted or top-dose-only effect, or another doubt; inactive = no such curve, though single readings can be large; an effect the other way counts as inactive or inconclusive;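 note: plate controls were enzyme without inhibitor for no effect and buffer without enzyme for full effect; nearly all actives have a fitted effect of over 40% in size; top concentration of the series not given in the record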
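Purified cruzain at 1.5 nM, pre-incubated 15 min with compound at room temperature in 100 mM sodium acetate pH 5.5, 5 mM DTT, 0.00005% Triton X-100. Reaction started with 2 uM Z-FR-AMC; AMC fluorescence increase over 60 s gives rate.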
StopGo reporter: High Throughput Screening for Foot and Mouth Disease Virus Antivirals. human cells with a luciferase reporter of 2A StopGo recoding; control for the full effect not named in the record. Potency, µM (doses to about 57.9 µM), for the others: at the highest dose signal change, negative = less light. actives 1.2% (n = 410,000). AID 1159524, 2015; active = well fitted falling curve with a large enough effect; inconclusive = small, poorly fitted or top-dose-only effect; inactive = no such curve, though single readings can be large or run the other way; tested in HEK293T cells; note: % is set by controls: 0 for no effect and ±100 for the full control effect; nearly all actives have a fitted effect of over 45% in size; luciferase light after 4 h
NS1 inh: qHTS Assay for Inhibitors of Influenza NS1 Protein Function. S. cerevisiae slowed by influenza A NS1, growth recovery by OD600. Potency, µM (titrated, usually from 46.1 µM), for inactives: at the top dose activity, positive = more growth. actives 0.4% (n = 270,000); note: actives are rising curves; nearly all actives have a fitted effect of over 50% in size
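OD600 was taken as the measure of yeast growth restored by compound in an NS1-expressing S. cerevisiae strain. Cells had been washed out of glucose medium and diluted 1:100 into galactose -URA medium, pH 6.0.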
LASV entry inh: qHTS for Inhibitors of binding or entry into cells for Lassa Virus; Lassa virus pseudotype entry inhibition, cell reporter; control for the full effect not named in the record; Potency, µM (top dose mostly 37.9 µM), for the others: at the top dose activity change, negative = inhibition, actives largely listed as inhibitors; actives 1.2% (n = 300,000); active means well fitted inhibition curve with a large enough effect; inconclusive means small, poorly fitted or top-dose-only effect, or effect the other way; inactive means flat fitted curve, though single readings scatter; tested in HEK293 cells; note: % is set by controls: 0 for no effect and ±100 for the full control effect; nearly all actives have a fitted effect of over 50% in size; luciferase read-out
An asterisk follows results filed as active; u = inconclusive; x = not tested or not shown; & = joins results of further samples; [ ] = another dose, or the depositor's remark. Unless noted, calls come from the whole dose curve; as a rule, active means well fitted rising curve with a large enough effect; inconclusive means small, poorly fitted or top-dose-only effect; inactive means no such curve, though single readings can be large or run the other way. Potency is the fitted concentration of half-maximal effect.

SMILES	Marburg entry inh	SARS PLP yeast	RE007 growth inh	Cruzain Triton	Cruzain noTriton	StopGo reporter	NS1 inh	LASV entry inh
CC(C)(C)C(=O)N1CCN(c2ncccc2C(F)(F)F)CC1	x	-2%	-16%	x	x	-9%	-4%	x
Cc1cc(C(=O)CSc2nc(N)cc(=O)[nH]2)c(C)n1Cc1ccco1	x	2%	2%	x	x	u	11%	x
O=C1c2ccccc2-c2onc3ccc(Oc4ccccc4)c1c23	u	-45%	u	-5.3%	19%	u	-14%	10µM*
CCOc1ccc(/C=N/N2C(C)CCCC2C)cc1OC (centres undefined)	x	-2%	-3%	x	x	3%	10%	x
Cn1c(=O)n(C)c2cc(N3CCOCC3)c(NS(=O)(=O)c3ccc(Br)cc3)cc21	20%[46.1 µM]	x	x	-2.6%	u	-22%	x	-8%[46.1 µM]
C=CCSc1nc(C)c(CCC(C)C)c(=O)[nH]1	3%	-2%	-1%	x	x	1%	-9%	-1%
CCOC(=O)COn1c(=O)c(=O)n(O)c2ccccc21	-5%	-5%	-16%	-2.7%	-5%	-15%	-1%	0%
COc1ccc(CCN(/C=C2\Sc3ccccc3C2=O)C(C)=O)cc1OC	u	-1%	-15%	x	x	6%	-4%	10%[46.1 µM]
O=C(NC12CC3CC(CC(C3)C1)C2)c1ccc(S(=O)(=O)N2CCOCC2)cc1	u	1%	-10%	-1.9%	-2%	u	-11%	-23%
O=C(COc1ccc2ccccc2c1)Nc1ccc2c3c(cccc13)CC2	-5%	-8%	8%	-1.4%	u	-16%	9%	0%
CC(C)CCn1c(=O)[nH]c2ccccc21	10%[46.1 µM]	-3%	-3%	x	x	-20%	2%	-7%
COc1cc(C)ccc1OCc1cc(C(=O)N2CCN(C3CCCCC3)CC2)no1	x	-16%	-25%	x	x	37%[activator]	-13%	x
CN(C)c1ccc(/C=C/C(=O)c2cccc(Br)c2)cc1	4%	-1%	-12%	-1.7%	-4%	35%[activator]	-5%	1%
CCOc1ccccc1OCC(=O)NCCc1ccc(S(N)(=O)=O)cc1	-2%[46.1 µM]	1%	7%	x	x	19%	x	-14%[46.1 µM]
N/C(=N\OC(=O)COc1ccc(Cl)cc1Br)c1ccncc1	19%[46.1 µM]	-3%	-3%	x	x	60%[activator]	0%	8%
Cc1ccc(-c2cc(C(=O)NCCc3ccc(S(N)(=O)=O)cc3)c3ccccc3n2)cc1	x	0%	2%	x	x	0%	-1%	x
COc1ccc(/C=N/N=C(/N)N[N+](=O)[O-])c(OC)c1	1%	-3%	5%	-7.0%	-2%	25%	-8%	-10%
CCOC(=O)C1=C(C)NC(C)=C(C(=O)OCC)C1c1ccccn1	-5%	2%	5%&1%	2.8%	7%	-2%&0%	-1%	5%
CN1CCCN(S(=O)(=O)c2ccc(O)c(C(=O)O)c2)CC1	x	-1%	16%	x	x	-21%	3%	x
CCn1cc(C(=O)O)c(=O)c2cnc(N3CCN(C(=S)NC(=O)c4ccccc4)CC3)nc21	5%[46.1 µM]	0%	2%	x	x	0%	4%	-1%[46.1 µM]
O=C(NCC1OCCc2ccccc21)c1ccc(NC(=O)c2cccc(Br)c2)cc1 (centres undefined)	-11%	24%	-13%	0.8%	u	u	13%	-17%
O=C(Nc1cccc(C(F)(F)F)c1)c1cc(CN2CCOCC2)on1	x	x	x	0.4%	12%	-4%	x	-3%[46.1 µM]
NC(=O)C1CCN(C(=O)CN(c2cccc(C(F)(F)F)c2)S(=O)(=O)c2ccccc2)CC1	1%	-1%	7%	0.0%	25%	16%	-3%	7%
CCN(C(=O)COC(=O)c1ccc2c(c1)OCO2)c1c(N)n(Cc2ccccc2)c(=O)[nH]c1=O	-1%	2%	-5%	x	x	-3%	x	5%
NC(=O)c1ccc(N2CCCCC2)c(N2C(=O)C3CC=CCC3C2=O)c1 (centres undefined)	u	-2%	13%	-0.2%	-2%	15%	-1%	0%
Clc1cccc2sc(N3CCN(c4ccccc4)CC3)nc12	-4%&-4%	-23%	-3%	-7.3%	7%	3%	-42%	x
O=C(NCc1ccc(F)cc1)c1ccc2c(c1)N(Cc1c(F)cccc1Cl)C(=O)CS2	u	x	x	-5.0%	u	u	x	10%[46.1 µM]
Cn1c(=O)c(=O)n(C)c2cc([N+](=O)[O-])c(N3CCOCC3)cc21	14%[46.1 µM]	-1%	13%	x	x	-13%	-10%	-26%[46.1 µM]
CN1C(=O)c2ccc(NC(=O)c3ccc(N4CCCCC4)c([N+](=O)[O-])c3)cc2C1=O	11%	14µM*	2%	-7.4%	14%	18µM*	-6%	-8%
CC(C(=O)NC1CCCC1)N1C(=O)c2cccc3cccc1c23 (centres undefined)	-12%[46.1 µM]	-3%	7%	x	x	-22%	-6%	3%[46.1 µM]
CC(/C=N\NC(=O)Cn1cncn1)=C/c1ccc(C(C)C)cc1	u	0%	13%	x	x	13%	0%	-23%
O=C(C(=O)N1CCCCCC1)c1c[nH]c2ccccc12	5%	-6%	2%	x	x	32%[activator]	-5%	-15%
COc1ccccc1OCc1ccc(C(=O)Nc2ccccc2F)cc1	u	11%	-5%	0.9%	1%	19%	4%	12%
CCOC(=O)CNC(=O)CSc1nc(-c2cccc(C)c2)ns1	4%	0%	11%	x	x	22%	x	-23%
CC(C)CC(NS(=O)(=O)c1cc(C(=O)O)ccc1Cl)C(=O)O (centres undefined)	10%[46.1 µM]	1%	-19%	x	x	4%	x	2%[46.1 µM]
CCOc1ccc(N=C2SCCCN2C)cc1	24%	-11%	-14%	-2.2%	-5%	-4%	-11%	-7%
CCc1ccc(-c2csc3[n+]2CCN3C(C)=O)cc1	-13%	-30%	-5%	18µM*	-21%	x	29%	-5%
Cc1ccc2cccc(OCC(=O)Nc3ccc4c(c3)OCO4)c2n1	-4%	-8%	-2%	x	x	-15%	x	-20%
O=C(CSc1nnc(NC(=O)C2CC2)s1)Nc1ccccc1	u	4%	-2%	x	x	-9%	-16%	1%[46.1 µM]
CC1=C(C(=O)Nc2ccccn2)C(c2ccccc2Cl)NC(=S)N1 (centres undefined)	-1%	1%	4%	x	x	60%[activator]	x	13%
CC(C)C[C@H](NC(=O)OC(C)(C)C)C(=O)N/N=C/C1=Cc2ccccc2OC1C (some centres undefined)	u	-15%	-4%	u	-7%	-1%	23%	u
CS(=O)(=O)c1cccc(C(=O)NCc2ccccc2)c1	-17%	-2%	-1%	4.1%	-6%	x	3%	21%
COc1ccc(C2=NN(C(=O)CCCC(=O)O)C(c3cccs3)C2)cc1OC (centres undefined)	20%[46.1 µM]	0%	18%	x	x	-3%	0%	-22%
O=C(CSc1nnc(C2CC2)n1Cc1ccccc1)N1CCNC1=O	3%[46.1 µM]	-4%	-13%	x	x	-2%	x	-1%[46.1 µM]
Cc1ccc(NC(=S)Nc2cccc3cnccc23)c(C)c1	1%[46.1 µM]	0%	-12%	x	x	u	x	7%
Cc1ccccc1-c1noc(-c2ccccc2C(=O)NCc2ccco2)n1	u	-1%	4%	x	x	-13%	-4%	-13%
OC1(c2ccccc2F)CC2CCC(C1)N2CCN1CCOCC1 (centres undefined)	-2%	-4%	1%	0.4%	-1%	20%	7%	-24%
CCC(c1nnnn1C(C)(C)CC)N1CCN(c2ccccc2F)CC1 (centres undefined)	u	-1%	6%	x	x	-11%	-2%	-8%
CCOC(=O)N1CCN(Cc2nc(N)nc(Nc3ccc(Cl)cc3)n2)CC1	u	2%	3%	x	x	6%	0%	12%
Cc1ccc(Cl)c(OCCN2CCc3ccccc3C2)c1	x	-5%	-22%	x	x	u	-33%	x
COc1ccc(NC(=O)CSc2ncc3c(n2)-c2ccccc2N(C)S3(=O)=O)cc1Cl	x	x	x	0.4%	-30%	-26%	x	-14%[46.1 µM]
CCOc1ccc(-n2c(=O)c3sc4ccccc4c3n(Cc3cccc(C)c3)c2=O)cc1	18%[46.1 µM]	x	x	1.9%	7%	-22%	x	8%[46.1 µM]
Cc1nn(C(C)C(=O)O)c(=O)c2ccccc12 (centres undefined)	0%[46.1 µM]	0%	-16%	x	x	0%	-2%	-7%[46.1 µM]
O=C(CN1CCCC1)OCCCC1CCCCC1	-1%[46.1 µM]	0%	51%	x	x	2%	4%	0%[46.1 µM]
Cc1nnc2c(N3CCN(C(=O)c4ccco4)CC3)nc3ccccc3n12	x	0%	3%	x	x	-19%	-5%	x
Cc1ccc2c(c1)COc1c3ccc(C(=O)N4CCCCC4)cc3nn1-2	x	-8%	-21%	x	x	62%[activator]	-10%	x
COc1ccc(F)cc1S(=O)(=O)N1CCCC(C)C1 (centres undefined)	5%	1%	5%	-0.3%	-4%	x	4%	0%
COc1ccc(CNC(=O)CC(C)n2nc(C)cc2C)cc1 (centres undefined)	x	x	x	-1.0%	16%	0%	x	u
O=C(NCCCn1ccnc1)c1ccc(NS(=O)(=O)c2cccc([N+](=O)[O-])c2)cc1	-5%	-5%	0%	x	x	-8%	x	1%
CC(C(=O)Nc1ccc2c(c1)OCCO2)N1Cc2ccccc2C1=O (centres undefined)	-4%[46.1 µM]	14%	9%	x	x	-8%	-2%	11%[46.1 µM]
The list continues.
SMILES	Marburg entry inh	SARS PLP yeast	RE007 growth inh	Cruzain Triton	Cruzain noTriton	StopGo reporter	NS1 inh	LASV entry inh
COc1ccccc1CNc1ncnc2c1c(-c1ccccc1)cn2-c1ccc(Br)cc1	x	x	x	-0.5%	7.9µM*	-18%	x	-13%[46.1 µM]
COc1ccc(C(=O)NCCc2nnc3ccc(SCC(=O)N4CCCC4)nn23)cc1	u	-1%	2%	x	x	-5%	8%	6%
COc1cc(NC(=O)c2noc3c2CCC3)c(OC)cc1Cl	-3%	-3%	10%	-5.3%	19%	11%	-9%	-2%
O=c1[nH]c(CSc2nnc(COc3ccccc3)n2-c2ccccc2)nc2ccccc12	3%	8%	-15%	2.1%	u	x	-19%	-11%
